FGF22 binding = binders of recombinant human FGF22 by thermal shift; Q9HCT0; SYPRO orange fluorescence; percent of sucrose octasulfate shift, DMSO zero; calls only at 9.99 µM; 340,000 compounds, 1.5% hits; AID 651658;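 active = melting point raised past a set limit in the mean and every replicate; three in four hits are not shown here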
Target sequence (Q9HCT0 whole entry, looked up): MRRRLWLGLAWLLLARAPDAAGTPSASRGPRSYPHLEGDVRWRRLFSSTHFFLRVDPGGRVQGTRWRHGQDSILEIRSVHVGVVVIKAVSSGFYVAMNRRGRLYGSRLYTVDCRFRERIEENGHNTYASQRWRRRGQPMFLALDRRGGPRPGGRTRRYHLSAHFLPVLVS
Calls only; i = inactive. Not all compounds are listed; the hit share may differ from the screen's.

FGF22 binding	canonical_smiles
i	C[C@H](CO)N1C[C@H](C)[C@H](CN(C)Cc2ccc(F)cc2)Oc2ncc(-c3ccccc3)cc2C1=O
i	COc1ccccc1-c1cn(CC[C@H]2CC[C@@H](NC(=O)c3ccccc3F)[C@H](CO)O2)nn1
i	C[C@H](CO)N1C[C@H](C)[C@@H](CN(C)S(=O)(=O)c2cccs2)Oc2ccc(N(C)C)cc2C1=O
i	C[C@H]1CN([C@@H](C)CO)C(=O)c2cccc(NC(=O)c3cnccn3)c2O[C@@H]1CN(C)Cc1ccncc1
i	C[C@@H]1CCCCO[C@H](CN(C)Cc2ccc3c(c2)OCO3)[C@H](C)CN([C@H](C)CO)C(=O)c2cc(NC(=O)c3ccncc3)ccc2O1
i	CO[C@H]1CN(C)C(=O)c2cc(NC(C)=O)ccc2OC[C@H](C)N(S(=O)(=O)c2cn(C)cn2)C[C@@H]1C
i	COc1ccc(CN(C)C[C@@H]2Oc3ccc(NS(=O)(=O)c4c(C)noc4C)cc3CC(=O)N([C@H](C)CO)C[C@H]2C)cc1
i	Cc1ccc(S(=O)(=O)Nc2ccc3c(c2)CC(=O)N([C@H](C)CO)C[C@@H](C)[C@@H](CN(C)S(C)(=O)=O)O3)cc1
i	C[C@@H](NC(=O)C[C@@H]1CC[C@H]2[C@H](COc3ccc(NC(=O)C4CCOCC4)cc3C(=O)N2C)O1)c1ccccc1
i	COc1ccccc1S(=O)(=O)N(C)C[C@@H]1Oc2cc(/C=C/c3ccccc3)ccc2S(=O)(=O)N([C@H](C)CO)C[C@H]1C
i	CN(C)C(=O)C[C@H]1C[C@H]2c3cc(NC(=O)NC4CCCCC4)ccc3O[C@H]2[C@@H](CO)O1
i	O=C(C[C@H]1CC[C@@H]2NC[C@H](O)COC[C@H]2O1)NCCc1ccncc1
i	C[C@H](CO)N1C[C@H](C)[C@H](CN(C)C(=O)Nc2ccc(F)cc2)Oc2ccc(NC(=O)Nc3ccc(C(F)(F)F)cc3)cc2C1=O
i	COCC(=O)Nc1ccc2c(c1)OC[C@H](C)N(Cc1ccccc1OC)C[C@@H](C)[C@H](OC)CN(C)C2=O
i	O=C(CN1CCOCC1)N[C@@H]1CC[C@@H](CCNC(=O)Nc2cc(F)ccc2F)O[C@@H]1CO
i	CN(C)c1ccc2c(c1)[C@H]1C[C@H](CC(=O)NCc3cccc(F)c3)O[C@@H](CO)[C@H]1O2
i	C[C@H](CO)N1C[C@H](C)[C@@H](CN(C)C(=O)Nc2ccc(C(F)(F)F)cc2)Oc2ncc(C3=CCCC3)cc2C1=O
i	C[C@H](CO)N1C[C@H](C)[C@H](CN(C)S(=O)(=O)c2cccs2)Oc2c(NS(C)(=O)=O)cccc2C1=O
i	O=C(C[C@H]1C[C@H]2c3cc(NC(=O)c4cccnc4)ccc3O[C@H]2[C@H](CO)O1)NCc1ccncc1
i	CO[C@@H]1CN(C)C(=O)c2cc(NC(C)=O)ccc2OC[C@H](C)N(CCC(F)(F)F)C[C@H]1C
i	COc1ccc2c3c(n(C)c2c1)[C@@H](CO)N(Cc1ccc(F)cc1)CC31CCN(CC2CC2)CC1
i	Cn1cnc(S(=O)(=O)N[C@@H]2C=C[C@H](CC(=O)NCC3CCCCC3)O[C@@H]2CO)c1
i	OC[C@H]1[C@@H](c2ccc(C#CC3CCCC3)cc2)[C@H]2CN(CCC(F)(F)F)CCCCN21
i	C/C=C/c1ccc2c(c1)O[C@@H](CN(C)C(=O)NC1CCCCC1)[C@@H](C)CN([C@H](C)CO)S2(=O)=O
i	CO[C@H]1CN(C)C(=O)c2cc(NS(C)(=O)=O)ccc2OC[C@@H](C)N(C(=O)C2CCOCC2)C[C@H]1C
i	C[C@H]1CN([C@@H](C)CO)S(=O)(=O)c2ccc(Br)cc2O[C@@H]1CN(C)C(=O)CN(C)C
i	O=C(CCN1CCCCC1)NCC[C@@H]1CC[C@@H](NC(=O)Cc2cccnc2)[C@H](CO)O1
i	O=C(Nc1ccc(Cl)c(Cl)c1)N[C@@H]1CC[C@H](CCn2cc(C3CCCCC3)nn2)O[C@@H]1CO
i	CC(C)CC#Cc1cnc2c(c1)C(=O)N([C@H](C)CO)C[C@H](C)[C@H](CN(C)C(=O)CN1CCOCC1)O2
i	C[C@H](CO)N1C[C@H](C)[C@@H](CN(C)C(=O)Nc2cccc3ccccc23)Oc2ccc(NS(=O)(=O)c3cccs3)cc2CC1=O

Pulled by compound from above:
FGF22 binding	canonical_smiles
i	C[C@H]1CN([C@@H](C)CO)S(=O)(=O)c2ccc(Br)cc2O[C@@H]1CN(C)C(=O)CN(C)C
i	C/C=C/c1ccc2c(c1)O[C@@H](CN(C)C(=O)NC1CCCCC1)[C@@H](C)CN([C@H](C)CO)S2(=O)=O
i	COCC(=O)Nc1ccc2c(c1)OC[C@H](C)N(Cc1ccccc1OC)C[C@@H](C)[C@H](OC)CN(C)C2=O
i	C[C@H](CO)N1C[C@H](C)[C@@H](CN(C)C(=O)Nc2ccc(C(F)(F)F)cc2)Oc2ncc(C3=CCCC3)cc2C1=O
i	CO[C@H]1CN(C)C(=O)c2cc(NC(C)=O)ccc2OC[C@H](C)N(S(=O)(=O)c2cn(C)cn2)C[C@@H]1C
i	CN(C)c1ccc2c(c1)[C@H]1C[C@H](CC(=O)NCc3cccc(F)c3)O[C@@H](CO)[C@H]1O2

Nothing new here: four of the compounds above.
FGF22 binding	canonical_smiles
i	O=C(CCN1CCCCC1)NCC[C@@H]1CC[C@@H](NC(=O)Cc2cccnc2)[C@H](CO)O1
i	O=C(Nc1ccc(Cl)c(Cl)c1)N[C@@H]1CC[C@H](CCn2cc(C3CCCCC3)nn2)O[C@@H]1CO
i	CC(C)CC#Cc1cnc2c(c1)C(=O)N([C@H](C)CO)C[C@H](C)[C@H](CN(C)C(=O)CN1CCOCC1)O2
i	C[C@H](CO)N1C[C@H](C)[C@@H](CN(C)C(=O)Nc2cccc3ccccc23)Oc2ccc(NS(=O)(=O)c3cccs3)cc2CC1=O

Following part.
FGF22 binding	canonical_smiles
i	CCCNC(=O)C[C@@H]1C[C@H]2c3cc(NC(=O)C4CCOCC4)ccc3O[C@H]2[C@H](CO)O1
i	Cc1noc(C)c1S(=O)(=O)Nc1ccc2c(c1)CC(=O)N([C@@H](C)CO)C[C@H](C)[C@H](CN(C)C(=O)Nc1ccc(F)cc1)O2
i	COc1ccc(NC(=O)Nc2ccc3c(c2)CC(=O)N([C@@H](C)CO)C[C@@H](C)[C@H](CN(C)C(=O)Nc2cccc4ccccc24)O3)cc1
i	COc1ccc(NC(=O)N(C)C[C@@H]2OCCCC[C@@H](C)Oc3ccc(NS(C)(=O)=O)cc3C(=O)N([C@H](C)CO)C[C@H]2C)cc1
i	O=C(C[C@@H]1C[C@@H]2c3cc(NC(=O)C4CCC4)ccc3O[C@@H]2[C@H](CO)O1)NCc1cc(F)ccc1F
i	CNC[C@H]1Oc2ccc(NS(=O)(=O)c3ccccc3)cc2C(=O)N([C@H](C)CO)C[C@@H]1C
i	CO[C@H]1CN(C)C(=O)c2cc(NC(=O)C3CC3)ccc2OC[C@H](C)N(Cc2cccc(F)c2)C[C@@H]1C
i	CC(C)c1cn(CC[C@@H]2CC[C@@H](NC(=O)Nc3cc(Cl)cc(Cl)c3)[C@H](CO)O2)nn1
i	COc1ccc(S(=O)(=O)N(C)C[C@H]2Oc3ccc(NC(=O)Cc4cn(C)c5ccccc45)cc3C(=O)N([C@@H](C)CO)C[C@H]2C)cc1
i	CO[C@@H]1CN(C)C(=O)c2ccc(NC(=O)CN(C)C)cc2OC[C@@H](C)N(C(=O)C2CCOCC2)C[C@H]1C
i	O=C(N[C@@H]1CC[C@@H](CCNS(=O)(=O)c2cccc(Cl)c2)O[C@H]1CO)c1ccncc1
i	COc1ccc(NC(=O)Nc2ccc3c(c2)CC(=O)N([C@H](C)CO)C[C@H](C)[C@@H](CN(C)C(=O)Nc2cccc4ccccc24)O3)cc1
i	CCCNC(=O)Nc1ccc2c(c1)C(=O)N(C)C[C@H](OC)[C@H](C)CN(C(=O)C1CCCCC1)[C@@H](C)CO2
i	C[C@H]1CN([C@@H](C)CO)C(=O)c2cc(-c3ccccc3)cnc2O[C@H]1CN(C)C
i	CO[C@@H]1CN(C)C(=O)c2cc(NC(=O)c3ccc4c(c3)OCO4)ccc2OC[C@H](C)N(CCC(F)(F)F)C[C@@H]1C
i	Cc1noc(C)c1S(=O)(=O)Nc1ccc2c(c1)C(=O)N([C@@H](C)CO)C[C@@H](C)[C@@H](CN(C)C(=O)Nc1ccc(C(F)(F)F)cc1)O2
i	Cc1noc(C)c1S(=O)(=O)Nc1ccc2c(c1)CC(=O)N([C@H](C)CO)C[C@H](C)[C@@H](CN(C)C(=O)Nc1ccc(C(F)(F)F)cc1)O2
i	O=C(C1CC1)N1CC2(C1)[C@@H](c1ccccc1)[C@@H](CO)N2Cc1ccc(Cl)cc1
i	C[C@H](CO)N1C[C@H](C)[C@H](CN(C)Cc2ccc(C(F)(F)F)cc2)OCCCC[C@H](C)Oc2ccc(NC(=O)CCC(F)(F)F)cc2C1=O
i	COc1ccc(C(=O)Nc2ccc3c(c2)C(=O)N(C)C[C@@H](OC)[C@H](C)CN(C)[C@@H](C)CO3)cc1
i	CO[C@@H]1CN(C)C(=O)c2ccc(NC(=O)C3CC3)cc2OC[C@@H](C)N(C(=O)c2ccccc2F)C[C@H]1C
i	C[C@@H]1CN([C@H](C)CO)C(=O)c2cc(N(C)C)ccc2O[C@@H](C)CCCCO[C@@H]1CN(C)S(C)(=O)=O
i	CO[C@H]1CN(C)C(=O)c2cc(NS(=O)(=O)c3ccc(Cl)cc3)ccc2OC[C@H](C)NC[C@@H]1C
i	Cc1cccc(S(=O)(=O)N2CCCCN3[C@H](CO)[C@H](c4ccc(C#CC(C)C)cc4)[C@H]3C2)c1
i	CN1c2ccc(-c3ccccc3)cc2[C@@H]2[C@@H](CCN2C(=O)c2ccncc2)[C@@H]1CO
i	COc1ccc(NC(=O)N(C)C[C@H]2Oc3ccc(NC(=O)NC(C)C)cc3CC(=O)N([C@@H](C)CO)C[C@@H]2C)cc1
i	CO[C@@H]1CN(C)C(=O)c2cc(NS(=O)(=O)C3CCCCC3)ccc2OC[C@H](C)NC[C@@H]1C
i	CO[C@H]1CN(C)C(=O)c2cc(NC(=O)c3ccc(Oc4ccccc4)cc3)ccc2OC[C@H](C)NC[C@@H]1C
i	Cc1noc(C)c1S(=O)(=O)Nc1ccc2c(c1)CC(=O)N([C@H](C)CO)C[C@H](C)[C@@H](CN(C)S(=O)(=O)c1ccc(Cl)cc1)O2
i	C[C@@H]1CN([C@H](C)CO)C(=O)c2cc(NS(=O)(=O)c3ccc(Cl)cc3)ccc2O[C@H]1CN(C)S(=O)(=O)c1ccc(Cl)cc1

A second format for 2 compounds above:
mol	FGF22 binding
COc1ccc(NC(=O)N(C)C[C@H]2Oc3ccc(NC(=O)NC(C)C)cc3CC(=O)N([C@@H](C)CO)C[C@@H]2C)cc1	i
Cc1noc(C)c1S(=O)(=O)Nc1ccc2c(c1)C(=O)N([C@@H](C)CO)C[C@@H](C)[C@@H](CN(C)C(=O)Nc1ccc(C(F)(F)F)cc1)O2	i

Next part
FGF22 binding	canonical_smiles
i	CC(C)NC(=O)Nc1ccc2c(c1)C(=O)N([C@@H](C)CO)C[C@@H](C)[C@@H](CN(C)S(C)(=O)=O)O2
i	CN1CCCCC(NC(=O)CSc2ccccc2)C1=O (stereo not drawn)
i	C[C@@H]1CCCCO[C@H](CN(C)C(=O)C2CCCCC2)[C@H](C)CN([C@@H](C)CO)C(=O)c2cc(NC(=O)c3ccncc3)ccc2O1
i	O=C(CC1CC1)Nc1ccc2c(c1)[C@H]1C[C@@H](CC(=O)N3CCc4ccccc4C3)O[C@@H](CO)[C@H]1O2
i	C[C@H]1CN([C@@H](C)CO)C(=O)CCCn2cc(nn2)CO[C@H]1CN(C)Cc1ccc(Oc2ccccc2)cc1
i	O=C(C[C@@H]1CC[C@@H](NC(=O)NC2CCCC2)[C@@H](CO)O1)NCc1ccc(F)cc1
i	C[C@H]1CN([C@@H](C)CO)C(=O)c2cccc(NC(=O)NC3CCCCC3)c2O[C@H]1CN(C)S(C)(=O)=O
i	COc1ccc(N2CCN(C(=O)C3CCN(S(=O)(=O)c4ccc5c(c4)CC(C)N5C(=O)C4CC4)CC3)CC2)cc1 (stereo not drawn)
i	CN1c2ccc(Br)cc2[C@@H]2[C@@H](CCN2C(=O)Nc2cc(F)ccc2F)[C@@H]1CO
i	CCC(=O)N(C)C[C@H]1[C@H](c2ccccc2)[C@@H](CO)N1C(=O)Cc1ccncc1
i	CO[C@@H](C(=O)N(C)C[C@@H]1OCc2ccccc2-c2c(n(C)c3ccccc23)C(=O)N([C@H](C)CO)C[C@@H]1C)c1ccccc1
i	C[C@H]1CN([C@@H](C)CO)C(=O)c2cc(C#Cc3ccccn3)cnc2O[C@@H]1CN(C)C(=O)c1ccccn1
i	C[C@@H]1CN([C@H](C)CO)C(=O)Cc2cc(NC(=O)CCCCCC(=O)Nc3ccccc3N)ccc2O[C@@H]1CN(C)C(=O)Nc1ccc(C(F)(F)F)cc1
i	C[C@@H]1CN([C@H](C)CO)C(=O)c2cc(NC(=O)Nc3ccc4c(c3)OCO4)ccc2O[C@@H]1CN(C)S(=O)(=O)c1ccccc1
i	C[C@@H]1CN([C@@H](C)CO)C(=O)c2cc(NC(=O)CCC(F)(F)F)ccc2O[C@@H]1CN(C)S(=O)(=O)c1ccc(Cl)cc1
i	CCC(=O)NC[C@@H]1[C@H](c2ccc(-c3ccccc3)cc2)[C@@H](CO)N1C(=O)C1CC1
i	O=C(Cc1ccccn1)N1[C@H](CO)[C@H]2c3ccccc3NC[C@H]21
i	CC(=O)N1CC(=O)N2[C@H](CO)[C@@H](c3ccc(-c4ccc(C)cc4)cc3)[C@H]2C1
i	C[C@H](CO)N1C[C@H](C)[C@H](CN(C)C(=O)Nc2ccccc2)Oc2ccc(NC(=O)Nc3ccc(F)cc3)cc2C1=O
i	COc1ccc2c3c(n(C)c2c1)[C@H](CO)NCC31CN(C(=O)Nc2ccccc2F)C1
i	CCC(=O)N1[C@@H]2c3ccc(C4=CCCCC4)c(=O)n3C[C@@H]2[C@@H](CO)[C@@H]1C(=O)NCc1ccc(F)cc1
i	O=C(Cc1ccccc1)N1CC[C@@H]2[C@@H](CO)Nc3ccc(-c4ccccc4)cc3[C@@H]21
i	C[C@@H]1CN([C@@H](C)CO)C(=O)c2cc(NC(=O)CCC(F)(F)F)ccc2O[C@@H](C)CCCCO[C@H]1CN(C)C(=O)c1ccccc1
